Screening results: PubChem, Johns Hopkins Ion Channel Center
KCNQ2 enhance – enhances the rat KCNQ2 potassium channel; 310,000 compounds, 0.54% hits; AID 2239; B-score at 10 µM; CHO-K1 KCNQ2, FluxOR thallium flux fluorescence; active compounds read high; O88943;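 active = fluorescence ratio B-score at least 3 SD of library B-scores, with initial fluorescence B-score within 3 SD, cut at about 5.3 in these data; same plate scores as AID 2156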;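 also: B-score of peak minus minimum over baseline fluorescence ratio after K+ and Tl+ stimulus; positive B-score means potentiation of KCNQ2 with more thallium influx and brighter signal; only the inactives scoring about 0 or higher are listed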
Target sequence (O88943 whole entry, looked up): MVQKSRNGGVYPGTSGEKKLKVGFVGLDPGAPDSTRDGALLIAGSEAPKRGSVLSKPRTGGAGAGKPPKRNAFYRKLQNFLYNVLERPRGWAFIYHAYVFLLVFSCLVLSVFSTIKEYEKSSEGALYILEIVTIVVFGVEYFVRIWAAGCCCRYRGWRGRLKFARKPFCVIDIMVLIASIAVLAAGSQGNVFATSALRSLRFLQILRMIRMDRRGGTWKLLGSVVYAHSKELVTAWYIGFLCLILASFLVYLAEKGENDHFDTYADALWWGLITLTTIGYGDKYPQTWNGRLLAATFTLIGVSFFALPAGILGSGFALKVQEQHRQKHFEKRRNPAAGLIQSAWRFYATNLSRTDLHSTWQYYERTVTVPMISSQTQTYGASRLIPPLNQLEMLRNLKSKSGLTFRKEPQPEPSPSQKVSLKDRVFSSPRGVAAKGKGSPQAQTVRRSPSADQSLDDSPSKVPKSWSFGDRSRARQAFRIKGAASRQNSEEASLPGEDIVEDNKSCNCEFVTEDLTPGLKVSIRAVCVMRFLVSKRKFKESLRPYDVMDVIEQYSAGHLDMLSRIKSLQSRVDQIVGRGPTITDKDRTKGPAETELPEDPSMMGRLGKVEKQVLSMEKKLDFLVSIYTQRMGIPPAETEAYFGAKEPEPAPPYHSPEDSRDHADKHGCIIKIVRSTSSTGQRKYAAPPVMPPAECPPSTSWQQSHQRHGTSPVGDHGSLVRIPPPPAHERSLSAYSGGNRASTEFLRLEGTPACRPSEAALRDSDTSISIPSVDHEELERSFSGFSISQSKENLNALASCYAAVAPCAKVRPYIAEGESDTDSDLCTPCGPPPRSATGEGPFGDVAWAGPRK
KCNQ2 enhance baseline – recorded beside KCNQ2 enhance, whose call it bears; B-score; compound at 10 µM; measured here: initial fluorescence intensity artifact check;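 brightness before thallium and not channel activity; 0 = typical well and far values either way flag optical interference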
* hit, by the source's call. An excerpt; rates above refer to the full screens.

SMILES	KCNQ2 enhance	KCNQ2 enhance baseline
CCN(CC)CCn1c(=S)[nH]c2ccc(Cl)cc2c1=O	0.06	-0.12
O=C(CSc1ccc(-c2nc3ccccc3[nH]2)cn1)Nc1ccc2c(c1)OCCO2	0.08	0.84
COc1cccc(CNC(=O)CSc2nnc3c(n2)[nH]c2ccccc23)c1	1.1	-1.6
Cc1c(NC(=O)C(C)N2CC(C)OC(C)C2)c(=O)n(-c2ccccc2)n1C (stereo not drawn)	0.91	-0.47
Cc1cccc(-c2noc(CN(C)C(=O)COc3ccccc3)n2)c1	0.61	0
O=C(NC(=S)N1CCN(Cc2ccccc2)CC1)c1ccccc1	2	1.3
COCCCC1CCN(C(=O)C2CCC(=O)N(CCc3ccccc3)C2)CC1 (stereo not drawn)	0.15	0.15
Cc1cc(C)cc(NC(=S)NCCCO)c1	0.56	-1.8
CCOC(=O)c1cccc(NC(=O)c2cccnc2)c1	0.64	1
COc1cc(C(=O)Nc2cc(C)nn2-c2ccccc2)cc(OC)c1OC	0.44	0.01
Cc1cc(CNC(=O)CC2C(=O)NCCN2Cc2ccccc2C(F)(F)F)on1 (stereo not drawn)	0.81	-0.11
O=C(Nc1cccc(S(=O)(=O)N2CCCCCC2)c1)c1ccc2c(c1)OCO2	0.49	-0.71
Cc1ccc(NNC(=O)c2c(F)cccc2Cl)cc1Cl	0.64	0.91
CCN(CC)CCNC(=O)c1ccc(CS(=O)(=O)c2ccccc2C)o1	0.14	-1.4
COC(=O)c1sc(NC(=O)CSc2nc3nc(C)cc(C)n3n2)c(C(=O)OC)c1C	1.2	-0.85
Cc1cccc(NC(=S)NNC(=O)c2ccccc2Br)c1	0.96	-1.8
CC(C)N(Cc1nccn1C)C(=O)c1cc(COc2ccc(-n3cncn3)cc2)on1	0.8	0.17
CN(C)c1nc(N)c(C(=O)N=C(N)N)nc1Cl	0.11	0.47
O=C(CCC1=NS(=O)(=O)c2ccccc2N1)NC1CCCCCCC1	1.4	-0.82
CCN1C(=O)c2ccc(C(=O)Nc3ncc(C)s3)cc2C1=O	0.02	1.3
CCCCN(C)CCN1C(=O)C2C(C(=O)Nc3cccc(OC)c3)C3C=CC2(O3)C1C(=O)NC1CCCCC1C (stereo not drawn)	0.13	-1.3
CCOCC(=O)Nc1ccc(S(=O)(=O)N2CCOCC2)cc1	0.43	-0.37
COc1ccc(C(=O)Nc2cccc(C(=O)NCc3ccccc3)c2)cc1	0.96	0.33
O=C(O)c1ccc(S(=O)(=O)c2ccc3c(c2)C(=O)N(c2ccccc2[N+](=O)[O-])C3=O)cc1	1.6	-0.34
Cc1cc(=O)n2[nH]c(-c3ccccc3)cc2n1	0.65	-0.07
Cc1cc(NS(=O)(=O)Cc2ccccc2)no1	0.59	-1.4
CC1(C)Cc2ccccc2C(NNC(=O)c2ccccc2)=N1	0.08	-1.6
O=C(CSc1ncccc1C(=O)O)NCc1ccc(F)cc1	0.05	-0.65
CCCn1c2ccccc2c2cnn(CC(=O)NCCCN3C(C)CCCC3C)c(=O)c21 (stereo not drawn)	1.4	1.2
O=C(Nc1ccc(N2CCOCC2)cc1)C1CCN(S(=O)(=O)Cc2ccccc2)CC1	1	-1
Cc1cccc(C)c1NC(=O)COC(=O)COc1ccc2c(C)cc(=O)oc2c1	0.76	0.06
O=C(O)CCS(=O)(=O)c1cc(Br)cc2c1N(C(=O)C1CC1)CC2	0.37	-0.95
CCCCn1nnnc1SCC(=O)Nc1cccc(C)n1	0.07	-2.2
CCNC(=S)N(Cc1cc2cc(C)ccc2[nH]c1=O)C1CCCC1	0.86	-1.6
CCCc1cc(C(=O)Nc2cccc(C(C)=O)c2)no1	1.6	0.05
COc1cc(NC(=O)C2=C(C)OCCS2)c(Cl)cc1C(=O)NCCN1CCN(C)CC1	0.04	-0.94
Cc1ccc2c(CSc3nnc4ccccn34)cc(=O)oc2c1C	1.5	0.08
CC(C)(C)Nc1c(-c2ccc(O)cc2)nc2ccc(Cl)cn12	0.89	0.23
Cc1cc(C(=O)c2cnc(/N=C/N(C)C)s2)cc(C)c1O	0.59	0.03
CCOC(=O)c1cnc2c(c(C)nn2CC)c1NCCN1CCOCC1	1.3	-0.1
C/C(=N\NC(=O)c1ccc(Br)cc1)c1cccnc1	0.02	1.1
COc1ccc(N2C(=O)CCC(C(=O)N3CCCCCC3)C2c2ccc(OC)c(OC)c2)cc1 (stereo not drawn)	2.1	-0.16
CCOC(=O)c1c(N2C(=O)Nc3ccccc3N2O)n[nH]c1-c1cccc(OC)c1	1.1	0.92
CN(c1ccccc1C(=O)Nc1cccc([N+](=O)[O-])c1)S(C)(=O)=O	0.08	-2.8
CCOC(=O)c1c(/N=C/c2ccc(OC)cc2O)sc2c1CCN(C)C2	0.58	0.4
Cc1ccc(NC(=S)Nc2ccc(F)cc2)c(C)c1	0.01	1.1
O=C(O)c1ccc(CSCc2ccco2)cc1	0.98	0.91
Cc1ccc(CN2CCN(CC(=O)NCc3ccc(Cl)cc3)C2=O)cc1	0.4	-1.7

Already shown: entries from further up.
SMILES	KCNQ2 enhance	KCNQ2 enhance baseline
Cc1ccc2c(CSc3nnc4ccccn34)cc(=O)oc2c1C	1.5	0.08
CC(C)(C)Nc1c(-c2ccc(O)cc2)nc2ccc(Cl)cn12	0.89	0.23
Cc1cc(C(=O)c2cnc(/N=C/N(C)C)s2)cc(C)c1O	0.59	0.03
CCOC(=O)c1cnc2c(c(C)nn2CC)c1NCCN1CCOCC1	1.3	-0.1
C/C(=N\NC(=O)c1ccc(Br)cc1)c1cccnc1	0.02	1.1
COc1ccc(N2C(=O)CCC(C(=O)N3CCCCCC3)C2c2ccc(OC)c(OC)c2)cc1 (stereo not drawn)	2.1	-0.16

(continued)
SMILES	KCNQ2 enhance	KCNQ2 enhance baseline
COc1cc(C2/C(=C(\O)c3ccc4c(c3)CC(C)O4)C(=O)C(=O)N2CC2CCCO2)cc(OC)c1OC (stereo not drawn)	0.96	0.57
Cc1ccsc1C=Nc1c(C)n(C)n(-c2ccccc2)c1=O	0.04	0.3
Cc1ccc(CS(=O)(=O)Cc2ccc(C(=O)NC3CCCCCC3)o2)cc1	3	0
CC1CCCC(NC(=O)COC(=O)CCC2CCCC2)C1C (stereo not drawn)	0.11	-1.2
NS(=O)(=O)Oc1ccccc1	0.32	0.32
Cc1cccc(OCC(=O)Nc2cccc(-c3nnc(-c4ccccc4)o3)c2)c1C	0.59	-0.37
CC1CCN(C(=S)NC(=O)c2cccc([N+](=O)[O-])c2)CC1	2.8	1
CC1CN(S(=O)(=O)c2ccc(C(=O)Nc3ccc(S(=O)(=O)N4CCOCC4)cc3)cc2)CC(C)O1 (stereo not drawn)	0.33	-0.96
COc1ccc(/C=N/NC(=O)c2cccc(NC(=O)c3ccccc3Cl)c2)cc1OC	0.96	-0.58
Cc1ccc(NS(=O)(=O)c2cccc(C(=O)NNC(=O)c3cccn3C)c2)c(C)c1	0.23	0.08
Cc1ccc(CN2C3CCCC2CC(NC(=O)c2ccc(C)cc2)C3)cc1 (stereo not drawn)	1.3	-0.14
CC1CCCCC12NC(=O)N(CC(=O)Nc1ccc3[nH]c(=O)[nH]c3c1)C2=O (stereo not drawn)	0.48	-0.72
CN(C)S(=O)(=O)c1ccc(Cl)c(NC(=O)COC(=O)/C=C/c2ccc(S(=O)(=O)N3CCOCC3)cc2)c1	0.02	0.61
O=C(Cc1ccccc1)N1CCN(c2ccc([N+](=O)[O-])cc2)CC1	0.05	0.13
COc1ccc(C(=O)Nc2ccc(Nc3ccccc3)cc2)cc1Br	1.3	0.08
COCCNc1c([N+](=O)[O-])c(=O)n(-c2ccccc2)c2ccccc12	0.67	-1.8
NC(=S)Cc1nc(-c2ccccc2)cs1	1	1.8
C/[N+]([O-])=C1\Cc2ccccc2C1=O	3.4	-1.5
Cc1ccc(/C=N/NC(=O)c2cccc(S(=O)(=O)Nc3ccccc3Cl)c2)o1	1	-0.34
COc1ccccc1NS(=O)(=O)NC(=O)c1c(C)[nH]c2ccccc12	0.73	-0.19
COc1ccc(Nc2nc3cc(C)ccc3cc2C#N)c(OC)c1	0.06	1.7
Cc1cccn2c(=O)c(C=O)c(N3CCSCC3)nc12	0.89	0.58
O=C(c1ccco1)N1CCN(C(c2ccc(Cl)cc2)c2nnnn2CC2CCCO2)CC1 (stereo not drawn)	0.65	-0.91
Cc1ccc(N2CC(C(=O)Nc3ccccc3C(=O)NC3CCCCC3)CC2=O)cc1 (stereo not drawn)	0.04	-0.57

Some of these compounds in order of their number in KCNQ2 enhance baseline, highest first.
SMILES	KCNQ2 enhance	KCNQ2 enhance baseline
COc1ccc(Nc2nc3cc(C)ccc3cc2C#N)c(OC)c1	0.06	1.7
Cc1ccc(N2CC(C(=O)Nc3ccccc3C(=O)NC3CCCCC3)CC2=O)cc1 (stereo not drawn)	0.04	-0.57
O=C(c1ccco1)N1CCN(C(c2ccc(Cl)cc2)c2nnnn2CC2CCCO2)CC1 (stereo not drawn)	0.65	-0.91

(more compounds)
SMILES	KCNQ2 enhance	KCNQ2 enhance baseline
O=C1c2cccc3cccc(c23)C(=O)N1CC1CCN(S(=O)(=O)c2ccc(F)cc2)CC1	0.33	-1.2
Cn1cnnc1Sc1nc2c(c(=O)n(C)c(=O)n2C)n1Cc1ccccc1Cl	0.91	-1.1
O=C1C2C3C=CC(CNS(=O)(=O)c4ccccc4[N+](=O)[O-])(O3)C2C(=O)N1c1ccccc1 (stereo not drawn)	0.38	-0.49
CCOc1ccccc1NC(=S)N1CCC(NC(=O)NC23CC4CC(CC(C4)C2)C3)CC1	0.91	0.31
CN(C)c1cc(-c2cccc(C(F)(F)F)c2)oc(=O)c1Cl	2.3	0.17
COc1ccc(C(=O)NCc2nnc(SCC(=O)Nc3ccc4c(c3)OCO4)o2)cc1	1.2	-2
CCC(C)Sc1ccc([C@H]2N[C@@](Cc3ccccc3)(C(=O)OC)[C@H]3C(=O)N(CC)C(=O)[C@@H]23)cc1 (stereo partly drawn)	0.01	-0.03
O=C(COc1cccc2ccccc12)NNC(=O)CSCCO	0.05	1.6
Cc1ccc(N(CC(=O)NCc2ccccc2)C(=O)CCC(=O)Nc2ccccn2)c(C)c1	1.4	0.09
COc1cc(/C=C/C(=O)OCC(=O)Nc2cc(C)c(C)cc2[N+](=O)[O-])ccc1O	0.81	-2
O=[N+]([O-])c1ccccc1/C=N/Nc1nccnc1Cl	0.56	0.1
O=C(CCNS(=O)(=O)c1ccc(Br)cc1)N1CCCCCCC1	3	-0.62
COCCNC(=O)c1cnn2c(C(F)(F)F)cc(-c3ccc4c(c3)OCO4)nc12	3.1	0.04
COc1cc(OC)nc(NC(=O)CCl)n1	0.75	0.01
O=C(O)CCc1cccnc1	1.4	-0.69
CCN(CC)CCC/C(=N\O)C(O)(c1ccccc1)c1ccccc1	0.93	-0.43
COc1ccc(CNC(=O)C2CCC(CNS(=O)(=O)c3cccc4cccnc34)CC2)cc1 (stereo not drawn)	0.5	-1.8
C1CCC2(CC1)OCC1(CO2)COC2(CCCCC2)OC1	0.31	-1.6
CCOC(=O)C1CCN(S(=O)(=O)c2ccc(C)c(C(=O)NC3CCCCC3)c2)CC1	0.72	-0.96
Cn1cc(C(=O)NCc2ccc(Cl)cc2)c(=O)c2cc(S(=O)(=O)N3CCOCC3)ccc21	0.83	-1.8
Cc1cnn(C(=S)NCc2ccco2)c1	1.3	-0.44
CCCCC(NC(=O)CCc1c(C)c2cc3c4c(oc3c(C)c2oc1=O)CCCC4)C(=O)O (stereo not drawn)	0.68	1.3
Cc1occc1C(=O)Nc1nccs1	0.77	0.34
COc1ccc(OC)c(NC(=O)Cn2c(CCC(=O)O)ccc2-c2ccccc2)c1	0.05	-0.02

Molecules above that have a thiophene ring, fused or not:
SMILES	KCNQ2 enhance	KCNQ2 enhance baseline
COC(=O)c1sc(NC(=O)CSc2nc3nc(C)cc(C)n3n2)c(C(=O)OC)c1C	1.2	-0.85
CCOC(=O)c1c(/N=C/c2ccc(OC)cc2O)sc2c1CCN(C)C2	0.58	0.4
Cc1ccsc1C=Nc1c(C)n(C)n(-c2ccccc2)c1=O	0.04	0.3

More results follow.
SMILES	KCNQ2 enhance	KCNQ2 enhance baseline
Cc1ccc(NC(=O)Nc2ccc3oc(C)nc3c2)cc1	1.3	-0.57
Cc1ccc(C)c(OCc2cc(C(=O)N3CCOCC3)no2)c1	0.09	1.1
Cc1[nH]c2ccccc2c1/C=C/c1nc2ccccc2c(=O)n1-c1cccc([N+](=O)[O-])c1	1.4	-0.55
CC1Sc2ccc(C(=O)Nc3ccccc3OC(F)F)cc2NC1=O (stereo not drawn)	1.5	0.5
O=C(COc1ccccc1Cl)NC(=S)Nc1ccc(CN2CCOCC2)cc1	0.1	0.07
CCOC(=O)c1c(C)[nH]c(C)c1S(=O)(=O)N(C)CC(=O)Nc1ccccc1F	0.04	-0.75
Cc1ccc(-n2nnc3c(SCC(=O)NCC4CCCO4)ncnc32)cc1 (stereo not drawn)	0.26	1.3
COC(=O)c1ccc(NC(=O)CSC2=NCCN2)cc1	0.42	0.89
CCOC(=O)c1nc(-c2ccccc2)oc1N1CCOCC1	0.11	-1.7
O=C(CNc1cccc(S(=O)(=O)N2CCCC2)c1)Nc1ccc(F)cc1F	0.16	0.58
CCn1nc(NS(=O)(=O)c2ccc(NC(C)=O)cc2)c2cc3ccccc3nc21	1.2	-0.86
CS(=O)(=O)NCc1csc(-c2ccccc2)n1	1.1	-0.34
COc1cccc(NC(=O)CNC(=O)Cn2cnc3sc(C)c(C)c3c2=O)c1	2.1	0.61
COc1ccc(Nc2nc(-c3sc(C)nc3C)cs2)cc1	0.21	0.04
CN1CCN(c2nc3c(c(=O)[nH]c(=O)n3C)n2CCCSc2nnnn2-c2ccccc2)CC1	0.1	0.86
O=C(Nc1ccc2snnc2c1)N1CCOCC1	0.77	0.13
CC1(C)Cc2nc3sc4c(=O)n(CC(N)=O)cnc4c3cc2CO1	0.71	0.3
